YopH inh: YopH (Yersinia) phosphatase inhibition; 0.16% of 140,000 active; fluorescence Ex485/Em525; inhibition, %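 (about 10 µM by stock and volumes)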;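 active = inhibition of 50% or more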;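 note: controls were vehicle for no effect and minimum signal wells for full effect; inactives centre near -20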
Arbovirus anti: antivirals against arbovirus infection; 0.37% of 200,000 active; inhibition, % at 10 µM; arbovirus infection cell-based antiviral screen;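 active = inhibition from about 30%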;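 note: bluetongue infection of BSR cells; cell survival read as ATP light after 72 h; 0% = infected wells without compound and 100% = uninfected wells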
Mtb betalactam: beta-lactam sensitization of Mtb H37Rv; M. tuberculosis H37Rv growth with meropenem, percent inhibition; hits of this screen are not shown here; inhibition, % at 25 µM; 0.27% of 330,000 active; AID 434955;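 active = about 74% or more and at least 40 points above the plate without the antibiotic, then above 30% in a dose series; inconclusive = first-round hits that could not be retested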;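 note: growth measured after seven days incubation then overnight dye step; 0% = bacteria only wells and 100% = bacteria with antibiotic; twin plates without the antibiotic show which effects depend on it; some results filed as inactive read as strong as hits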
Mtb growth: M. tuberculosis H37Rv growth inhibitors, H37Rv strain (AID 1626); 0.95% of 220,000 active; M. tuberculosis H37Rv growth inhibition; higher % means a stronger effect; inhibition, % at 10 µM, or IC50 in µM where a hit was titrated;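 active = confirmed in a dose series; inconclusive = inhibition above 80% but not taken into the dose series; inactive = below 80% or under 30% at every dose of the series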;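 note: bacteria incubated seven days before Alamar blue readout; 0% = bacteria only wells and 100% = bacteria with antibiotic wells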
RecA splice inh: Mtb RecA intein splicing inhibition; P9WHJ3; cell-free RecA intein splicing, fluorescence; inhibition, %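 (about 9 µM by stock and volumes)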; 0.75% of 290,000 active; AID 2221; in the data active = inhibition above about 30%; inconclusive = no clear call, values can overlap the other calls;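 note: 0% = vehicle wells and 100% = reference inhibitor control wells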
Target sequence (P9WHJ3 whole entry, looked up, canonical isoform): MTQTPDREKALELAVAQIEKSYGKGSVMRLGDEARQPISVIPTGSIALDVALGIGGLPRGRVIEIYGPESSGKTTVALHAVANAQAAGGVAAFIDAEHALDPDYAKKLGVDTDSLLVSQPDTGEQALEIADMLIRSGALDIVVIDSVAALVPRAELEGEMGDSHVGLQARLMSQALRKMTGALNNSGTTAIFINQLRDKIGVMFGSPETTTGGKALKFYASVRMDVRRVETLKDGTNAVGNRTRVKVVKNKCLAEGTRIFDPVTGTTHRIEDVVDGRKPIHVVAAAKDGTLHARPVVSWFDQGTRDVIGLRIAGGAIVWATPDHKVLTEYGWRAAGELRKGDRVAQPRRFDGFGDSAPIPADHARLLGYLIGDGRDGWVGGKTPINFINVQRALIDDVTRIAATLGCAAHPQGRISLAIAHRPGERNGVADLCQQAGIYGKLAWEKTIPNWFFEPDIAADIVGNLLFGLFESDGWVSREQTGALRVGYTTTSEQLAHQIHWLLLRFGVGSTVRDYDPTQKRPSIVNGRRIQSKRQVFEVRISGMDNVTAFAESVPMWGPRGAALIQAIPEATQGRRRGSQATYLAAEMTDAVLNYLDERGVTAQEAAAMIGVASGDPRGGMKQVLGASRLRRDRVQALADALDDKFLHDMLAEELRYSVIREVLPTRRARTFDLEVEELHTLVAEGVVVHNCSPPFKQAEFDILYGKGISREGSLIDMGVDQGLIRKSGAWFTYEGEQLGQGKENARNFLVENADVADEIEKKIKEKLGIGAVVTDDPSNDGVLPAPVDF
Arbovirus anti repeat: also measured in Arbovirus anti; calls as there; inhibition, %; measured here: 10K subset replicate screen; many hits read low in the repeat;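 first of two repeat runs on a subset; 0% = infected and 100% = uninfected wells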
* = called active by the depositor; ? = inconclusive; . = not tested or not shown; & = joins results of further samples. Only part of the results is shown; rates above refer to the full screens.

SMILES	YopH inh	Arbovirus anti	Mtb betalactam	Mtb growth	RecA splice inh	others
Cc1ccc(CSCC(=O)NCc2ccc(F)cc2)cc1	.	-4	-1	8%	3.4
CCCCOC(=O)Oc1ccc2c(=O)c(Oc3cc(C)cc(C)c3)coc2c1	-24	0	-5	6%	0.9
COc1ccc(/C=N/Nc2nnc(Cc3ccc(OC)c(OC)c3)c(=O)[nH]2)cc1OC	-39	-6	2	-7%	-5.6
CNC(=O)CSc1nnc(NC(=O)C2CC(=O)N(c3ccccc3OC)C2)s1 (configuration not stated)	.	.	-10	.	-1.0
CCN(CC)CC#CCC(O)(c1ccccc1)c1ccccc1	.	-2	-3	-4%	-1.2
NC(=O)Cc1cn(-c2ncc(C(F)(F)F)cc2Cl)c2ccccc12	-6	-2	-3	3%	0.6
Cc1ccc(NC(=O)Nc2cccs2)nc1	6	2	?	-2%	-5.3
CN(C1CCCCC1)S(=O)(=O)c1ccc(NC(=O)c2ccc(Br)o2)cc1	16	15	-3	6%	6.5
O=C(Nc1ccc(Cl)c(-c2nc3ccccc3[nH]2)c1)c1cccnc1	-16	-9	.	-4%	1.3
CC(=O)Oc1ccccc1C(=O)OCCN=C1NS(=O)(=O)c2ccccc21	.	.	-2	.	1.0
CCOc1ccc(N(CC(=O)OC)S(=O)(=O)c2ccc3c(c2)n(C)c(=O)c(=O)n3C)cc1	-45	-2	2	1%	-1.0
S=c1[nH]nc(Cc2ccc(Cl)cc2)o1	.	.	2	2%	-0.8

Compounds from the list above with an aryl methoxy group:
SMILES	YopH inh	Arbovirus anti	Mtb betalactam	Mtb growth	RecA splice inh	others
COc1ccc(/C=N/Nc2nnc(Cc3ccc(OC)c(OC)c3)c(=O)[nH]2)cc1OC	-39	-6	2	-7%	-5.6
CNC(=O)CSc1nnc(NC(=O)C2CC(=O)N(c3ccccc3OC)C2)s1 (configuration not stated)	.	.	-10	.	-1.0

The list goes on:
SMILES	YopH inh	Arbovirus anti	Mtb betalactam	Mtb growth	RecA splice inh	others
COc1cccc(C(=O)NCC2(c3ccccc3)CCCC2)c1OC	.	.	2	.	8.3
COc1ccccc1CNC(=O)C1CCCN(S(=O)(=O)c2cccc3cccnc23)C1 (configuration not stated)	-1	1	?	-4%	2.5	Arbovirus anti repeat=-3
CCOC(=O)Nc1ccc2c(c1)N(C(=O)OCCN(C)C)c1ccccc1CC2	-1	1&2	-2&1	-1%&-8%	3.3&-0.7	Arbovirus anti repeat=1
Cc1cc(F)ccc1NC(=O)c1cc(S(=O)(=O)N2CCc3ccccc32)cn1C	.	.	-1	.	-7.5
CC(C)c1nnc(NC(=O)c2cc3ccccc3o2)s1	.	.	-2	.	-1.1
CC(C)c1ccc(N=Cc2c(O)n(C3CC3)c(=S)[nH]c2=O)cc1	.	.	69	11%	-5.1
Cc1cc(SC(C)C(=O)O)nc2ccccc12 (configuration not stated)	.	1	-2	-5%	-0.2
CCSc1nnc(-c2ccccc2N)c(=O)[nH]1	13	11	-1	-6%	0.9
COCc1cc(CN2CCCC(C(=O)Nc3ccc(-c4ccco4)cc3)C2)ccc1OC (configuration not stated)	.	.	96	.	4.7
O=C(O)CC1SC(=Nc2ccccc2)N(c2ccccc2)C1=O (configuration not stated)	-19	16	-5	1%	1.1	Arbovirus anti repeat=-4
Cc1cc(F)ccc1S(=O)(=O)Nc1c(C)n(C)n(-c2ccccc2)c1=O	-9	2	3	8%	2.6	Arbovirus anti repeat=-1
O=C(c1cccc(S(=O)(=O)N2CCCC2)c1)N1CCN(c2ccccc2)CC1	-38	-20	-7	-7%	-0.7
COc1ccccc1CNC(=O)[C@H](CCSC)NC(=O)[C@@H]1Cc2ccccc2CN1	.	.	-6	.	8.6
O=C(NCCCn1ccnc1)c1ccc(Cl)c(S(=O)(=O)N2CCOCC2)c1	-12	6	3	-5%	-0.4
Cc1ccc(CN2CCC(c3nc4ccc(Cl)cc4[nH]3)CC2)cc1	-25	-15	10	0%	1.6
COc1ccc(OC)c(S(=O)(=O)N2CCC(C(=O)Nc3cccc(C(F)(F)F)c3)CC2)c1	0	-16	-10	14%	6.5
Cc1ccc(NC(=O)COc2ccc(/C=C3/NC(=O)NC3=O)cc2)cc1	.	.	2	.	2.2
c1ccc(-c2cnnc3ccccc23)cc1	.	.	0	.	-0.1
CN(C)S(=O)(=O)c1ccc2c(c1)C(=NNC(N)=O)c1cc(S(=O)(=O)N(C)C)ccc1-2	.	.	7	.	0.4
CCn1c(C)c(C(C)=O)c(N2CCN(c3cccc(Cl)c3)CC2)nc1=S	-21	-2	-4	1%	3.4
Fc1ccc(-c2nnn(Cc3nc4ccccc4s3)n2)cc1	-35	0	3	-13%	.
COc1ccc(C2CC(=O)NC(=O)C2)cc1	.	.	4	.	-0.3
Cc1nc(OCC(C)C)c2sc3nc4c(cc3c2n1)COC(C)(C)C4	.	.	3	0%	-2.5
COC(=O)C1=COC(C)C2CN3CCc4c([nH]c5cc(OC)c(OC)cc45)C3CC12 (configuration not stated)	.	.	0	-4%	-26
COc1ccc(-n2c(SCC(=O)Nc3cc(C)on3)nc3c([nH]c4ccccc43)c2=O)cc1	.	6	4	.	3.4
Cc1nnc(SCC(=O)Nc2ccccc2)n1CCc1ccccc1	-17	5	-2	-5%	1.3
Cn1c(SCC(=O)Nc2ccccc2F)nnc1C1CCCCC1	.	.	-4	.	-3.0
COc1ccc(-c2cc(=O)oc3c(C)c(OCc4nn[nH]n4)ccc23)cc1	-41	2	2	-17%	2.3
O=C(Nc1ccc(N2CCCC2)cc1)C(c1ccccc1)c1ccccc1	-2	5	-2	3%	0.3
CCOC(=O)C1CCCN(C(=O)C2c3ccccc3Oc3ccccc32)C1 (configuration not stated)	4	-1	-4	-5%	0.0
O=C1CNC(=O)N1	.	.	5	.	-2.1
O=C(N/N=C/C1CC=CCC1)c1cc(-c2cccnc2)nc2ccccc12 (configuration not stated)	.	-2	-3	-4%	0.6
Cc1ccc(S(=O)(=O)N2CCN(C(=O)CN3CCOCC3)C2c2ccccc2)cc1 (configuration not stated)	-42	-3	-11	-5%	0.2
COCCOc1cc(NC(=O)c2sccc2Oc2ccc([N+](=O)[O-])cc2F)c(Cl)cc1Cl	-34	-11	-11	1%	4.1
COc1ccc(C(=O)ON=C2CCN(c3ccc([N+](=O)[O-])cc3)CC2)cc1	-19	-3	89	-1%	3.6
CCOC(=O)C1(Cc2ccc(OC)cc2)CCN(C(=O)CCn2ccc(C)n2)CC1	.	4	-6	0%	-0.7
Cc1ccc(C(=O)N2CCN(c3ncnc4c(C)csc34)CC2)cc1	.	.	-5	-7%	-0.7
O=C(O)/C=C/c1ccc2c(c1)OCCO2	.	.	1	0%	-0.1
O=C1CN(C(=O)NCC(=O)N[C@@H](C(=O)O)c2ccccc2)c2ccccc2N1	.	.	3	.	-3.6
O=C(CN(C(=O)c1csnn1)c1ccccc1C(F)(F)F)NCc1ccccc1	.	.	-1	.	-0.4
CNS(=O)(=O)c1cccc(C(=O)OCC(=O)Nc2ccccc2OC(F)F)c1	-39	6	-2	5%	-5.3
O=c1[nH]c(=O)n(Cc2ccc(F)cc2)c(O)c1C=NCCCn1ccnc1	-26	2	7	16%	-1.0
COC(=O)c1[nH]c2ccccc2c1NS(=O)(=O)c1ccc(F)c(C)c1	-55	-2	1	0%	-0.1
Cc1cc(=O)oc2cc(OCC(=O)N3CCN(C(=O)C4COc5ccccc5O4)CC3)ccc12 (configuration not stated)	.	.	1	.	-2.1
COc1ccccc1CNC(=O)C(=O)Nc1ccc(C(=O)N2CCC(C)CC2)cc1	.	.	8	.	0.4
O=C(Cn1c(=O)[nH]c2ccccc2c1=O)N1CCN(Cc2ccc3c(c2)OCO3)CC1	.	.	0	.	0.5
Oc1ccccc1C(=S)N1CCN(c2cccc(Cl)c2)CC1	.	-1	0	-12%	11
COc1ccc(/C=C/C(=O)c2cc(F)ccc2OC(=O)c2ccccc2OC)cc1OC	.	-21	.	18%	1.1
COc1ccc(/C=N/NC(=O)CCn2nnc3ccccc32)cc1	.	.	-5	-3%	0.5
COc1ccccc1NC(=O)CSc1nc(C)c2c(c1C#N)CCCC2	-3	-3	-6	-2%	-0.5
Cc1cc(C)c(C2=CC(c3ccccc3)n3ncnc3N2)cc1C (configuration not stated)	.	.	2	-5%	-157
COc1ccc(CSCC(=O)Nc2ccccc2SC)cc1	-32	-17	3	-6%	2.4
O=C(Cn1c(=O)n(-c2ccccc2)c(=O)n1CC(=O)N1CCCCC1)N1CCCCC1	-51	4	2	-6%	1.9	Arbovirus anti repeat=3
COc1cccc(-c2nnn(CCc3nn[nH]n3)n2)c1	-29	-6	-3	16%	1.1
O=C1CC(NCc2ccncc2)C(=O)N1c1ccccc1 (configuration not stated)	-38	3	-11	-13%	-1.6
CCOC(=O)c1c(/N=C/C2C(=O)NC(=S)NC2=O)sc2c1CCC2	.	-18	0	-2%	-6.0

Structures from the list above that have fluorine:
SMILES	YopH inh	Arbovirus anti	Mtb betalactam	Mtb growth	RecA splice inh	others
Cc1ccc(CSCC(=O)NCc2ccc(F)cc2)cc1	.	-4	-1	8%	3.4
NC(=O)Cc1cn(-c2ncc(C(F)(F)F)cc2Cl)c2ccccc12	-6	-2	-3	3%	0.6
Cc1cc(F)ccc1NC(=O)c1cc(S(=O)(=O)N2CCc3ccccc32)cn1C	.	.	-1	.	-7.5
Cc1cc(F)ccc1S(=O)(=O)Nc1c(C)n(C)n(-c2ccccc2)c1=O	-9	2	3	8%	2.6	Arbovirus anti repeat=-1
COc1ccc(OC)c(S(=O)(=O)N2CCC(C(=O)Nc3cccc(C(F)(F)F)c3)CC2)c1	0	-16	-10	14%	6.5
Fc1ccc(-c2nnn(Cc3nc4ccccc4s3)n2)cc1	-35	0	3	-13%	.
Cn1c(SCC(=O)Nc2ccccc2F)nnc1C1CCCCC1	.	.	-4	.	-3.0
COCCOc1cc(NC(=O)c2sccc2Oc2ccc([N+](=O)[O-])cc2F)c(Cl)cc1Cl	-34	-11	-11	1%	4.1
O=C(CN(C(=O)c1csnn1)c1ccccc1C(F)(F)F)NCc1ccccc1	.	.	-1	.	-0.4
CNS(=O)(=O)c1cccc(C(=O)OCC(=O)Nc2ccccc2OC(F)F)c1	-39	6	-2	5%	-5.3
O=c1[nH]c(=O)n(Cc2ccc(F)cc2)c(O)c1C=NCCCn1ccnc1	-26	2	7	16%	-1.0
COC(=O)c1[nH]c2ccccc2c1NS(=O)(=O)c1ccc(F)c(C)c1	-55	-2	1	0%	-0.1
COc1ccc(/C=C/C(=O)c2cc(F)ccc2OC(=O)c2ccccc2OC)cc1OC	.	-21	.	18%	1.1
